# SARS PLP yeast = inhibitors of SARS-CoV papain-like protease in yeast | S. cerevisiae expressing SARS-CoV PLpro, growth rescue; control for the full effect not named in the record | Potency, µM (doses to about 32.9 µM), for inactives: top-dose activity, positive = growth rescue | 330,000 compounds, 0.19% hits; also: 0% is about no effect; nearly all actives have a fitted effect of over 55% in size; growth read by luminescence after 48 h
# MARV entry inh = blocks Marburg virus binding to or entry into cells; 300,000 compounds, 1.8% hits; Potency, µM (top dose mostly 37.8 µM), for the others: at the top dose activity change, negative = inhibition, most hits filed as inhibitors; Marburg virus pseudotyped entry inhibition, cell reporter; control for the full effect not named in the record; about a third of the inactives were read at about 46 µM; AID 540276; active = well fitted inhibition curve with a large enough effect; inconclusive = small, poorly fitted or top-dose-only effect, or effect the other way; inactive = flat fitted curve, though single readings scatter; tested in HEK293 cells; about a fifth of its hits are not listed in these tables; also: % is scaled to controls: 0 for no effect and ±100 for the full control effect; luciferase read-out
# NS1 function inh = influenza NS1 inhibition. S. cerevisiae slowed by influenza A NS1, growth recovery by OD600. Potency, µM (titrated, usually from 46.1 µM), for the others: at the top dose activity, positive = more growth. 270,000 compounds, 0.4% hits; also: actives are rising curves; nearly all actives have a fitted effect of over 50% in size
#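 Recovery from NS1-induced slow growth read by OD600 in budding yeast switched to galactose assay medium (pH 6.0, -URA) at 1:100 dilution. Compound 23 nl per well; the matching strain lacking NS1 serves as control.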
# Cruzain Triton = blocks cruzain activity in presence of Triton detergent; purified cruzain, Z-FR-AMC fluorescence, 0.01% Triton; Potency, µM, for inactives: max response, negative = inhibition, usual class: inhibitors; 200,000 compounds, 0.43% hits; AID 1478; active = well fitted curve in the direction sought with a large enough effect; inconclusive = small, poorly fitted or top-dose-only effect, or another doubt; inactive = no such curve, though single readings can be large; an effect the other way counts as inactive or inconclusive;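 also: plate controls were neutral wells for no effect and buffer without enzyme for full effect; nearly all actives have a fitted effect of over 40% in size; top concentration of the series not given in the record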
# Target sequence (P25779 123-467 limits assumed): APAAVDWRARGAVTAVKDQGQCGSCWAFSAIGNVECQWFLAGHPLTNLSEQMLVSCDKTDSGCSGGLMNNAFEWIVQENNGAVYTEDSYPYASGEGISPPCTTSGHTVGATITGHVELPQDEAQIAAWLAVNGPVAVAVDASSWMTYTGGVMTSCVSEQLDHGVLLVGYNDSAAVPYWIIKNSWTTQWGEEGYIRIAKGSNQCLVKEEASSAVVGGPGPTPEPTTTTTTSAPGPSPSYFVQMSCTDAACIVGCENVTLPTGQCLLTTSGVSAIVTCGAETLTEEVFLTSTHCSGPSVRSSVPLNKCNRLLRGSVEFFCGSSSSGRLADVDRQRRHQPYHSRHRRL
#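 15 min RT preincubation of 1.5 nM cruzain with compound, then 2 uM Z-FR-AMC added; kinetic AMC fluorescence, 60 s delta. Triton X-100 0.01%, pH 5.5.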
# RE007 growth inh = less growth of the S. pombe RE007 Vpr strain; S. pombe RE007 Vpr strain, BacTiter-Glo ATP luminescence, 24 h; control for the full effect not named in the record; 360,000 compounds, 0.21% hits; Potency, µM (series often up to 92.2 µM), inactives show top-dose activity change, negative = less growth; active = well fitted falling curve with a large enough effect; inconclusive = small, poorly fitted or top-dose-only effect; inactive = no such curve, though single readings can be large or run the other way;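 also: % is scaled to controls: 0 for no effect and ±100 for the full control effect; nearly all actives have a fitted effect of over 50% in size; the assay follows cell death caused by Vpr and the record does not say whether a fall means rescue or toxicity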
#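 Fission yeast strain RE007, carrying one chromosomally integrated HIV-1 vpr copy, was seeded at OD 0.01 in PMG+AL medium with 23 nL pinned compound. After 24 h at 30 °C and 99% humidity, viability was read by BacTiter-Glo luminescence.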
# StopGo reporter = FMDV 2A StopGo reporter, luciferase signal; AID 1159524; Potency, µM (series often up to 57.9 µM), without a hit: at the top dose signal change, negative = less light; human cells with a luciferase reporter of 2A StopGo recoding; control for the full effect not named in the record; 410,000 compounds, 1.2% hits; active = well fitted falling curve with a large enough effect; inconclusive = small, poorly fitted or top-dose-only effect; inactive = no such curve, though single readings can be large or run the other way; tested in HEK293T cells; also: % is scaled to controls: 0 for no effect and ±100 for the full control effect; nearly all actives have a fitted effect of over 45% in size; luciferase light after 4 h
# LASV entry inh = blocks Lassa virus binding to or entry into cells; Lassa virus pseudotype entry inhibition, cell reporter; control for the full effect not named in the record; Potency, µM (top dose mostly 37.9 µM), without a hit: at the highest dose activity change, negative = inhibition, hits mostly inhibitors; 300,000 compounds, 1.2% hits; AID 540256; active means well fitted inhibition curve with a large enough effect; inconclusive means small, poorly fitted or top-dose-only effect, or effect the other way; inactive means flat fitted curve, though single readings scatter; tested in HEK293 cells; also: % is scaled to controls: 0 for no effect and ±100 for the full control effect; nearly all actives have a fitted effect of over 50% in size; luciferase read-out
# Cruzain inh noDet = blocks cruzain activity in detergent-free assay | AID 1476 | purified cruzain, Z-FR-AMC fluorescence, no detergent | 200,000 compounds, 2.3% hits | Potency, µM, for the others: max response, negative = inhibition, actives largely listed as inhibitors; active = well fitted curve in the direction sought with a large enough effect; inconclusive = small, poorly fitted or top-dose-only effect, or another doubt; inactive = no such curve, though single readings can be large; an effect the other way counts as inactive or inconclusive;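 also: plate controls were enzyme without inhibitor for no effect and buffer without enzyme for full effect; nearly all actives have a fitted effect of over 40% in size; top concentration of the series not given in the record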
#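 Detergent-free condition (0.00005% Triton X-100) in acetate buffer pH 5.5 with DTT. 1.5 nM enzyme and compound were pre-mixed 15 min, then 2 uM Z-FR-AMC substrate added; reaction progress from fluorescence change between first and third reads (60 s).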
# * hit, by the source's call; ? = inconclusive; · = no result given; & = joins results of further samples; [ ] = another dose, or the depositor's remark. Unless noted, calls follow the shape of the dose curve; as a rule, active means well fitted rising curve with a large enough effect; inconclusive means small, poorly fitted or top-dose-only effect; inactive means no such curve, though single readings can be large or run the other way. Potency is read from the fitted curve at half-maximal effect.
SMILES,SARS PLP yeast,MARV entry inh,NS1 function inh,Cruzain Triton,RE007 growth inh,StopGo reporter,LASV entry inh,Cruzain inh noDet
COC(=O)CCCC(=O)N1CCCC(CCC(=O)NCc2ccc(F)c(F)c2)C1 (configuration not stated),0.7%,28.0%[46.1 µM],8.6%,·,0.8%,9.7%,-2.9%,·
CC(=O)N1CCc2[nH]c3ccccc3c2C1,1.9%,18.1%,-3.1%,2.7%,-3.0%,42.6%[activator],-4.8%,5.0%
CCC1CN(C(=O)N2CCC(C(=O)Nc3ccccc3OC)CC2)c2ccccc2O1 (configuration not stated),?,-22.2%[46.1 µM],-25.0%,·,-8.4%,-29.2%,-29.5%[46.1 µM],·
COC(=O)C(NC(=O)CCc1c(C)nc2cc(-c3cccc(F)c3)nn2c1C)C(C)C (configuration not stated),·,-15.0%[46.1 µM],·,-0.1%,·,?,-3.4%[46.1 µM],13.9%
COC(=O)c1ccc(CNC(=O)C2CCC(=O)N(CCc3ccccc3)C2)cc1 (configuration not stated),0.3%,-24.6%[46.1 µM],-14.6%,·,10.7%,0.4%,?,·
Cc1ccc(NC(=O)c2oc3ccccc3c2C)c([N+](=O)[O-])c1,-3.0%,22.5%[46.1 µM],·,·,-12.5%,19.7%,13.9%[46.1 µM],·
COc1ccc(NC(=O)CSC2=NN3CCCC(=O)N=C3S2)c(OC)c1,-4.4%,0.0%[46.1 µM],-3.7%,·,1.5%,-15.0%,0.3%[46.1 µM],·
NCC(c1ccccc1)c1c[nH]c2ccccc12 (configuration not stated),-1.5%,?,2.2%,·,-0.9%,-12.0%,24.5%[46.1 µM],·
O=C(c1cnc2ccccn2c1=O)N1CCCc2ccccc21,0.7%,16.9%,0.4%,-3.2%,-5.4%,0.0%,-1.9%,-7.1%
CC(=O)Oc1ccc(/C=C(\NC(=O)c2ccco2)C(=O)Nc2ccc(C(C)=O)cc2)cc1,0.6%,25.6%,2.6%,·,-8.2%,1.9%,-6.9%,·
O=C1C2CCCC1C(N1CCCC1)CC2 (configuration not stated),14.6%,9.4%[46.1 µM],-5.7%,0.1%,15.2%,45.8%[activator],-2.0%,-0.5%
O=C(COC(=O)Cc1ccccc1)Nc1cccnc1Cl,-0.8%,-16.2%[46.1 µM],·,·,-6.8%,-18.1%,3.7%[46.1 µM],·
CN(C)Cc1c(C(=O)N/N=C/CCc2ccccc2)nnn1-c1nonc1N,0.8%,0.5%[46.1 µM],4.3%,·,2.9%,10.1%,?,·
COc1ccc(C(CNC(=O)c2oc3ccccc3c2C)N2CCCC2)cc1 (configuration not stated),-0.8%,?,·,·,-15.3%,-21.6%,?,·
O=C(NCc1ccccc1)C(c1cccnc1)N(Cc1ccco1)C(=O)c1ccccn1 (configuration not stated),-0.5%,1.7%,1.7%,4.5%,-3.2%,-5.0%,-2.3%,0.2%

# Reprinted at random: 2 records from the list.
SMILES,SARS PLP yeast,MARV entry inh,NS1 function inh,Cruzain Triton,RE007 growth inh,StopGo reporter,LASV entry inh,Cruzain inh noDet
COC(=O)C(NC(=O)CCc1c(C)nc2cc(-c3cccc(F)c3)nn2c1C)C(C)C (configuration not stated),·,-15.0%[46.1 µM],·,-0.1%,·,?,-3.4%[46.1 µM],13.9%
O=C(COC(=O)Cc1ccccc1)Nc1cccnc1Cl,-0.8%,-16.2%[46.1 µM],·,·,-6.8%,-18.1%,3.7%[46.1 µM],·

# Next part
SMILES,SARS PLP yeast,MARV entry inh,NS1 function inh,Cruzain Triton,RE007 growth inh,StopGo reporter,LASV entry inh,Cruzain inh noDet
CCC(C)NC(=O)CCn1c(=O)c2cccn2c2ccc(F)cc21 (configuration not stated),1.2%,0.1%,1.3%,·,-2.6%,-7.7%,?,·
Cc1ccc([N+](=O)[O-])c(OCCCN2CCCCCC2)c1,0.5%,·,0.0%,·,-2.5%,-5.0%,·,·
CCOc1ccc2nc(SCC(=O)NC(=O)NCc3ccco3)[nH]c2c1,-0.4%,-8.2%[46.1 µM],11.4%,-9.0%,-4.5%,-6.6%,?,-1.2%
Cc1ccccc1-n1ncc(C(C)NC(=O)c2ccco2)c1C (configuration not stated),0.9%,4.4%[46.1 µM],1.5%,·,36.0%,14.1%,-5.9%[46.1 µM],·
CCc1nc2ccc(C(=O)N3CCN(c4cccc(C(F)(F)F)c4)CC3)cc2nc1CC,-8.1%,·,16.0%,·,19.8%,-18.1%,·,·
CCOC(=O)N1CCN(C(=O)COc2cccc3c2CCN(Cc2ccccc2C)C3=O)CC1,-2.5%,-41.0%,-20.2%,-3.6%,-7.4%,-29.3%,?,?
COc1ccc(OCCOCCN2CCc3ccccc3C2)cc1,-0.3%,-11.3%,-3.1%,-4.2%,7.4%[3.69 µM],-8.0%,0.3%,-1.9%
CCOc1ccc(NC(=O)C/C(N)=N/O)cc1,3.0%,25.2%,?,0.2%,4.2%,16.7%,2.0%,-8.1%
OCCOCCO,6.0%,·,·,6.7%,-5.5%,-10.9%,·,4.2%
CC(OC(=O)c1cccc(NS(C)(=O)=O)c1)C(=O)Nc1ccc(N2CCOCC2)cc1 (configuration not stated),3.3%,2.3%&7.3%,16.3%,0.8%,2.6%,42.9%[activator],10.9%,-17.3%
CCc1ccc(N2C(=O)NC(=O)C(Cc3ccc(OC)cc3OC)C2=O)cc1 (configuration not stated),6.3%,8.7%,?,0.8%,0.4%,-17.8%,7.3%,-1.5%
CCn1cc(CN2CCCC(C(=O)Nc3ccc(-c4cscn4)cc3)C2)cn1 (configuration not stated),-3.1%,-3.0%,-2.2%,·,-16.2%,-23.0%,0.9%,·
CCc1c(C2(O)CCCCC2)[nH]c2cc(C(F)(F)F)ccc12,-27.7%,·,-138.8%,·,?,?,·,·
CC1=C(C(=O)O)N2C(=O)C(NC(=O)CCCC(=O)O)C2SC1 (configuration not stated),0.6%,?,7.1%,·,?,-12.1%,-0.9%,·
COc1ccc(CNc2ncc(-c3ccccc3)n2C)cc1,-3.1%,·,-9.6%,·,-14.7%,21.4%,·,·
COC(=O)CCC(=O)Nc1sc(Cc2ccccc2)c(C)c1C(N)=O,0.0%,-1.9%[46.1 µM],-7.6%,·,-8.3%,-16.8%,6.8%[46.1 µM],·
C/C(Cc1ccccc1)=N\NC(=O)c1cccnc1,13.2%,0.6%,16.5%,1.6%,-7.4%,-12.4%,8.4%,7.4%
CCc1ccc(OC(=O)c2cccnc2)cc1,0.5%,·,-1.6%,·,30.6%,-0.6%,·,·
CN(C)/C(=N\O)c1c(Cl)cccc1Cl,-0.1%,0.5%[46.1 µM],-0.7%,·,4.3%,2.1%,-0.4%[46.1 µM],·
Cc1ccc(S(=O)(=O)Nc2ccc(Cl)cn2)cc1C,0.4%,-9.6%[46.1 µM],9.1%,·,11.1%,15.6%,2.7%[46.1 µM],·
Cc1ccc(-c2nnc3c4ccccc4c(C)nn23)cc1S(=O)(=O)N1CCN(CCO)CC1,1.9%,-21.2%,-14.7%,0.5%,17.5%,11.0%,13.2%,16.3%
Clc1ccccc1Cn1nnc2ccccc21,0.3%,·,4.2%,·,9.8%,0.0%,·,·
CC12CCC(=O)N1C(C(=O)NNC(=O)c1ccccc1)CS2 (configuration not stated),0.7%,9.9%,·,·,?,-17.0%,16.1%,·
CCOc1ccc(NC(=S)N2CCC(NC(=O)c3ccco3)CC2)cc1,9.3%,12.9%[46.1 µM],7.7%,·,0.6%,21.1%,6.7%,·
Cc1c(-c2ccccc2)nc(N)c(C#N)c1-c1ccco1,-3.6%,-7.8%,3.6%,-20.2%,1.9%,3.5%,-13.3%,-13.5%
Cc1ccc(OCC(=O)O)c(-n2nc3ccccc3n2)c1,1.7%,4.0%,-9.4%,1.0%,-2.5%,0.0%,8.0%,-6.4%
COc1ccccc1OCCCOc1c(C)cc(C)cc1Br,-10.8%,?,-10.6%,-5.7%,-2.1%,-10.4%,-18.6%,-1.7%
Oc1ccc2ccccc2c1CNc1ccccn1,-1.3%,·,2.6%,·,-23.7%,-3.8%,·,·
CCCCN(Cc1cc2ccccc2[nH]c1=O)C(=O)c1cccc(Cl)c1,·,-20.0%[46.1 µM],·,-2.5%,·,?,-9.7%[46.1 µM],2.2%
CC1CCCCN1CCNC(=O)c1ccc2c(=O)n(CCc3ccccc3)c(=O)[nH]c2c1 (configuration not stated),-1.2%,?,1.6%,-1.7%,17.8%,27.5%,?,-12.4%
CCC1OC(c2ccc([N+](=O)[O-])cc2)=Nc2ccccc21 (configuration not stated),-2.2%,·,9.8%,·,-13.8%,-16.1%,·,·
COc1ccccc1C(=O)Nc1cccc(NC(=O)c2ccccc2C)c1,-11.5%,?,-38.4%,·,-1.2%,-4.1%,-30.0%[46.1 µM],·
CCCOn1c(OCC(C)C)nc2ccccc2c1=O,-5.8%,-7.6%,-15.5%,-3.8%,-3.6%,0.0%,-7.4%,?
O=C(CSc1ncnc2nc[nH]c12)N1CCN(c2ccccc2)CC1,2.2%,-9.1%,2.6%,-8.7%,0.9%[3.69 µM],-15.0%,-11.1%,-4.5%
NS(=O)(=O)c1ccc(S(=O)(=O)N(CCc2ccccc2)Cc2ccccn2)cc1,3.55µM*,·,4.5%,·,6.9%,-16.1%,·,·
Cn1c(=O)cc(OCC(=O)NCCCN2CCN(c3ccccc3F)CC2)c2ccccc21,-1.7%,5.8%,-3.1%,0.7%,-10.5%,-12.8%,6.1%,-1.0%
COc1ccc(-n2nc(C(=O)NCC(=O)N3CCN(C)CC3)c3ccccc3c2=O)cc1OC,13.4%,-12.3%,2.0%,-0.6%,4.6%,16.2%,0.2%,-9.1%
Cc1ccn(CCC(=O)N2c3ccccc3CC2C)n1 (configuration not stated),-1.6%,·,4.2%,·,-4.7%,-5.8%,·,·
CCOC(=O)C1CCCN(C(=O)CN(c2ccc(OC)cc2)S(=O)(=O)c2c(C)noc2C)C1 (configuration not stated),-6.8%,-9.6%,-24.2%,-0.5%,23.5%,-12.0%,·,15.6%
CCc1ccccc1N(CC(=O)N1CCN(c2ccccc2F)CC1)S(C)(=O)=O,1.0%,9.4%,-20.1%,-2.2%,13.7%,-10.4%,23.1%,10.8%
